Screening data: PubChem, Southern Research Institute
Mtb H37Rv: Mycobacterium tuberculosis H37Rv growth inhibition, cell based, confirmatory dose response (AID 1949); most inactive calls were filed without a number and no value below 0 was filed; inhibition, % at 10 µg/mL; hits with a dose series show IC50 in µg/mL; 100,000 tested, 1.6% active;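 active = confirmed in a dose series; inconclusive = about 50% or more but not retested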;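 note: bacteria grown 7 days with compound before Alamar blue readout; 0% = untreated bacteria and 100% = reference antibiotic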
* = called active by the depositor; i = inactive; ? = inconclusive.

SMILES	Mtb H37Rv
COc1ccc(CCNC(=O)C(=O)c2c[nH]c3ccccc23)cc1OC	i
O=C(Nc1cccc(Cl)c1N1CCOCC1)c1sc2ccccc2c1Cl	0%
O=Cc1cc(COc2ccc(F)cc2Cl)cs1	3.2µg/mL*
COC(=O)c1nc(-c2ccccc2)oc1N(C)C	2%
CCOC(=O)c1cnc2c(ccc3ccccc32)c1Cl	i
COc1cc(-c2nc3ccccc3o2)cc(OC)c1OC	1%
COCCn1c(SCC(=O)Nc2c(C)cc(C)cc2C)nnc1-c1ccc(Cl)cc1	4%
CCN(c1ccccc1)S(=O)(=O)c1ccc(F)cc1	i
CCN(CC)CCN1C(=O)C(O)=C(C(=O)c2cccs2)C1c1ccccc1F (stereo not given)	i
CCCC(=O)Nc1ccc(C(=O)NCc2ccccc2Cl)cc1	i
COc1ccc(N2C(=O)CC(NCCc3c[nH]c4ccccc34)C2=O)cc1 (stereo not given)	i
CCc1ccccc1N(CC(=O)Nc1cccnc1)S(=O)(=O)c1ccccc1	i
Cc1cc(Cl)ccc1NC(=O)CN(c1ccccc1F)S(=O)(=O)c1ccccc1	i
O=S(=O)(Nc1ccc(Br)cc1)c1cccc2ccccc12	i
COc1cc(OC)c(C2=NOC(C(=O)N3CCc4ccccc4C3)C2)cc1Cl (stereo not given)	3%
O=[N+]([O-])c1cc(S(=O)(=O)Nc2ccc3oc4c(c3c2)CCCC4)ccc1Cl	0%
COCCn1c(C)cc(C(=O)CSc2nc(C)cc(C)c2C#N)c1C	i
COCCNC(=O)c1ccccc1NC(=O)CN(c1ccc(Cl)c(Cl)c1)S(C)(=O)=O	i
c1ccc(CCNc2c3c(nc4ccccc24)CCC3)cc1	i
O=C(Nc1cccc([N+](=O)[O-])c1)c1ccc(NC(=O)C(c2ccccc2)c2ccccc2)cc1	34%
Cc1ccc(NC(=O)c2ccc3c4c(cccc24)CC3)nc1	?
CCn1c(Sc2c(-c3ccccc3)c3ccc(Cl)cc3[nH]c2=O)nnc1-c1cccnc1	3%
O=C(Nc1c(C(=O)Nc2ccccc2Cl)cnn1-c1ccccc1)c1ccccc1Cl	i
COc1ccc(S(=O)(=O)Nc2ccccc2C(=O)NCCc2ccccc2)cc1	4%
COc1ccccc1NC(=O)Cn1c([N+](=O)[O-])cnc1C	i
CCOC(=O)c1c(NC(=S)NNC(=O)c2ccccn2)sc2c1CCCCC2	i
CCCOc1c(Br)cc(C2C3=C(CCCC3=O)N(C)C3=C2C(=O)CCC3)cc1OC	2%
C=CCN1C(=S)N(c2ccc(C)cc2)C(=O)C1CC(=O)Nc1cccc(Cl)c1 (stereo not given)	i
CCCCNCCOCCOc1cc(C)ccc1C(C)(C)C	i
COc1cccc(C2C(C(=O)c3sc(-c4ccccc4)nc3C)=C(O)C(=O)N2CCCN2CCOCC2)c1 (stereo not given)	i
C=CCn1c(CCCN2C(=O)c3cccc4cccc(c34)C2=O)nnc1SCC(=O)NCc1cccnc1	i
c1ccc(OCc2nc3ccccc3[nH]2)cc1	9%
O=C(Nc1ccccc1)OCC1CCCO1 (stereo not given)	i
COc1ccc(OC)c(C(=O)c2ccc(C(=O)N3CCCCCC3)cc2)c1	3%
CC(=O)Oc1ccc(C(=O)Nc2cccc(NC(=O)c3ccco3)c2)cc1	i
CCc1cc(=O)oc2c(C)c(OCc3ccc(C(=O)OC)cc3)ccc12	i
COC(=O)c1ccccc1NC(=O)C1=C(C)NC(=O)NC1c1ccc(O)c(O)c1 (stereo not given)	i
O=C(NC(=S)N1CCN(c2ccccc2)CC1)c1ccccc1	?
CCOC(=O)COc1ccc2c(C)cc(=O)oc2c1	i
CCOCC(=O)N1CCN(CC)CC1	i
O=C(CN1C(=O)c2ccccc2S1(=O)=O)N1CCc2ccccc2C1	i
Cc1cc(C)c(-c2cc(C(F)(F)F)no2)c(=O)[nH]1	i
CCCc1cc(C(=O)N2CCN(c3ccccc3C)CC2)cs1	?
CCc1cccc(CC)c1NC(=O)CN(c1ccc(C)cc1)S(=O)(=O)c1ccc(C)cc1	i
Cc1cc(C)c(OCC(=O)Nc2sc3c(c2C#N)CCC(C)C3)c(Br)c1 (stereo not given)	i
C=CCOc1ccc(CNc2cccc(C(=O)O)c2)cc1OCC	i
COc1ccc(F)cc1S(=O)(=O)N1CCC(C(N)=O)CC1	0%
COc1ccc(-n2c(SCC(=O)Nc3ccccc3F)nnc2-c2ccncc2)cc1	i
COc1ccc(NC(=O)CC2C(=O)N(c3ccccc3)C(=O)N2CCc2ccc(OC)c(OC)c2)cc1 (stereo not given)	i
CCOc1ccc(C(=O)NC(=S)Nc2ccccc2N2CCOCC2)cc1Br	i
COc1ccc(OC)c(NC(=S)N2CCC(Cc3ccccc3)CC2)c1	i
Cc1cc(C(=O)O)c(C)n1-c1ccc(Br)cc1	i
C=CCn1c(SCC(=O)NCc2ccccc2)nnc1-c1cc(Br)ccc1O	i
CCC(C)(C)NC(=O)Cc1ccc(Cl)cc1	i
Cc1cc(C)nc(Nc2nc(N)c3ccccc3n2)n1	2%
O=C(Nc1ccc(OCc2ccccc2)cc1)C1CCN(C(=O)c2ccc(Br)cc2)CC1	1%
COc1ccc(C2CC(c3nc4ccccc4[nH]3)=NN2C(=O)c2ccc(Br)o2)cc1 (stereo not given)	i
COc1ccc(C)cc1NC(=O)CN(C)S(=O)(=O)c1cc(Cl)ccc1Cl	i
CCc1cc2c(C)cc(=O)oc2cc1OCC(=O)c1ccc(F)cc1	i
CCC(C)NC(=O)c1ccccc1NS(=O)(=O)c1ccc2c(c1)OCCO2 (stereo not given)	i

Next section:
SMILES	Mtb H37Rv
Cc1cc(SCC(=O)Nc2ccc(SC(F)F)cc2)nc2ccccc12	i
Cc1ccc(OCCn2c(CC(C)(C)C)nc3ccccc32)cc1	5%
O=C(CSCc1ccccc1)N1CCc2ccccc21	i
CCOc1ccc(NC(=O)C2CC(=O)n3cnnc3N2)cc1 (stereo not given)	i
O=C(OCc1ccc(S(=O)(=O)Cc2ccccc2)cc1)c1cccs1	38%
C=CCNc1oc(Cc2ccccc2)nc1C#N	3%
S=C(NCc1ccc(Cl)cc1)NCc1cccs1	i
Cc1ccc(C(=O)Nc2cccc(CO)c2)cc1	0%
O=S(=O)(Cc1ccccc1)c1ccc(COc2ccc(OCc3ccccc3)cc2)cc1	5%
CC(C)(CC(=O)O)CC(=O)NC1=NCCS1	i
O=C(NCc1ccc(Cl)c(Cl)c1)C1CCCC1	i
COc1ccccc1N(CC(=O)NCCSCc1ccccc1C)S(=O)(=O)c1ccc(C)cc1	i
Cc1ccc(OCC(=O)N2CCN(C3=NS(=O)(=O)c4ccccc43)CC2)cc1	2%
O=C(N=Nc1c(O)[nH]c2ccc(Br)cc12)c1ccc(O)cc1	i
Cc1ccc(S(=O)(=O)c2cc3c(=O)n4ccccc4nc3n(CC3CCCO3)c2=N)cc1 (stereo not given)	i
CCC(OC(C)=O)c1cc2c(cc1[N+](=O)[O-])OCCO2 (stereo not given)	i
COc1c(C)cc(Br)cc1C(=O)NC(=S)Nc1ccc(CN2CCOCC2)cc1	i
Cc1csc(SCC(=O)Nc2ccc(I)cc2)n1	i
CS(=O)(=O)N1CCC(C(=O)Nc2cc(Cl)ccc2Oc2ccccc2)CC1	i
Cc1ccc(NC(=O)Nc2cccnc2)cc1	3%
CCOc1ccc(C(=S)N2CCN(c3ccc(F)cc3)CC2)cc1	i
Cc1cc(OCC(=O)Nc2ccc(S(=O)(=O)N(C)Cc3ccccc3)cc2)cc(C)c1Cl	i
O=C(Nc1ccc(S(=O)(=O)N2CCCC2)cc1)c1ccc(COc2ccc3c(c2)CCC3)o1	i
C=CCn1c(Cc2ccc(OC)cc2)nnc1SCC(=O)c1ccc(Br)cc1	i
CCC(CC)NC(=O)c1cccc(NC(=O)c2ccccc2)c1	i
O=S(=O)(c1ccc(Br)c2nsnc12)N1CCOCC1	i
CCOC(=O)CSc1nc2ccc(I)cc2c(=O)n1-c1ccc(OC)cc1	i
CCn1c(COc2cccc(C)c2)nnc1SCC(=O)Nc1ccc(I)cc1C	i
CCOC(=O)c1ccc(NC(=O)CN(c2cc(C)ccc2C)S(C)(=O)=O)cc1	i
Cc1ccc(C(=O)Nc2ccccc2C)o1	i
Cc1ccc(/C=C/c2nc3ccccc3c(=O)n2Cc2ccccc2)cc1	3%
N#Cc1c(NC(=O)C(=O)NCc2ccco2)sc2c1CCCC2	i
O=C(CCC1CCCC1)Nc1ccncc1	i
Cc1ccc(NC(=O)CSc2nc3ccccc3[nH]2)cc1	3%
COCc1nc2ccccc2n1CCCOc1ccccc1	7%
COC(=O)c1ccc(NC(=O)CSc2nnc(-c3ccccc3C)n2C)cc1	i
COC(=O)c1ccc(COc2ccc(CO)cc2OC)cc1	1%
Cn1c(SCCCN2C(=O)c3ccccc3C2=O)nnc1-c1cccs1	i
CCOCCCNCc1cc(Br)c(OCC(N)=O)c(OCC)c1	i
CNC(=O)c1ccccc1-c1ccccc1	i
Cc1ccc(-c2nn(C)c(=O)c3ccccc23)cc1S(=O)(=O)N1CCN(c2ccccc2)CC1	i
Cc1oc(CC(C)C)c(CN2CCOCC2)c1C(=O)O	i
O=C(CSc1nc2ccccc2n1S(=O)(=O)c1ccccc1)N1CCCC1	0%
Cc1ccc([N+](=O)[O-])cc1S(=O)(=O)Nc1cccc(N(C)C)c1	i
Cc1[nH]nc(-c2ccc(O)c(O)c2O)c1Oc1ccccc1F	9%
Cc1nnc(SCc2ccc(C(=O)O)cc2)s1	i
COc1ccc(C2CC(c3cc(F)ccc3O)=NN2)cc1OC (stereo not given)	i
Cc1ccc2ccccc2c1COc1ccc2c(C)cc(=O)oc2c1	i
Cc1cccc(NC(=O)C(Cl)(Cl)Cl)c1C	12%
COC(=O)c1cc(OC)c(OC)cc1NC(=O)c1ccc(C)o1	i
O=C(Nc1ccc(S(=O)(=O)Nc2ccccc2Cl)cc1)c1ccc(Cl)c(S(=O)(=O)N2CCOCC2)c1	i
Cc1occc1C(=O)Nc1ccc(Br)cc1Cl	i
CC1=C(C(=O)Nc2cccc(C)n2)C(c2ccc(C)cc2)C2=C(CC(C)(C)CC2=O)N1 (stereo not given)	i
CCC(C)NCCCOc1cccc(Br)c1 (stereo not given)	1%
CNc1cc(N2CCN(S(C)(=O)=O)CC2)ccc1[N+](=O)[O-]	i
Cc1cc(C)c(S(=O)(=O)N2CCN(c3ccc(Cl)cc3)CC2)c(C)c1	i
COc1ccc(-n2c(Cc3ccccc3)nnc2SCC(=O)c2ccccc2)cc1	i
CCOCC(=O)Nc1nc2ccc(S(C)(=O)=O)cc2s1	i
CCN(C1CCCCC1)S(=O)(=O)c1cc(Cl)c(OC)cc1Cl	i
CCn1c(SCC(=O)c2ccccc2)nc2ccc(I)cc2c1=O	i

Following part
SMILES	Mtb H37Rv
COc1c(Cl)cc(Cl)cc1C(=O)Nc1sc2c(c1C(N)=O)CCCCC2	i
COC(=O)c1c(NC(=S)NCc2ccc(S(N)(=O)=O)cc2)sc2c1CCC2	i
CCN(CC)S(=O)(=O)c1ccc(NC(=O)COc2ccc(C(C)C)cc2)cc1	i
Cc1ccc(S(=O)(=O)Nc2nc(C)c(NC(=O)Nc3ccc(Cl)cc3Cl)s2)cc1	i
CC1CCC(N2CCN(Cc3cccnc3)CC2)CC1 (stereo not given)	i
COCCNCCn1cnc2c1c(=O)[nH]c(=O)n2C	i
CN(CC(=O)Nc1cccc2ccccc12)S(=O)(=O)c1ccc(F)cc1	i
O=C(C1CCN(CC2CCCCC2)CC1)N(CCc1ccccc1)Cc1ccccc1	i
COC(=O)c1ccccc1NC(=O)c1ccc(Cl)s1	i
N#C/C(=C\c1ccc(-c2ccc(F)cc2)o1)C(=O)O	33%
CSc1nc2n(n1)C(c1cccs1)C1=C(CCCC1=O)N2 (stereo not given)	i
O=c1[nH]c(/C=C\c2ccc(OCc3ccc(Cl)cc3)cc2)c([N+](=O)[O-])c(=O)[nH]1	i
COc1ccc(C(=O)Nc2ccc(O)cc2)cc1Cl	i
Cc1ccnc(NC2(C(F)(F)F)N=C(c3ccccc3)NC2=O)c1 (stereo not given)	i
CC1(C)NC(=O)N(CCCOc2cccc(C(F)(F)F)c2)C1=O	i
Cc1ccc(SCCC(=O)N(C)C)cc1	i
CC(C)NC(=O)c1ccccc1NS(=O)(=O)c1ccc2c(c1)OCCO2	i
O=C(CCCOc1ccc(Cl)cc1)Nc1ccc(Cl)cc1	i
Cc1cc(C)c(OCC(=O)Nc2ncc(I)cc2C)c(Cl)c1	0%
O=C(CSc1nc2ccc([N+](=O)[O-])cc2[nH]1)Nc1ccc(F)c(F)c1	38%

Only part of the results is shown; count on the stated rates, not on these rows.
